# Calb FLC: C. albicans growth inhibition with fluconazole, primary screen, CaCi-2 strain, Alamar Blue fluorescence; 300,000 tested, 0.57% active; AID 1979, 2009; growth inhibition, % (test concentration not listed); C. albicans CaCi-2 (fluconazole-resistant clinical isolate) + fluconazole, 48 h;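 active means most replicates above 75%; inconclusive means exactly half above 75%; inactive means most below 75%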;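 further: all wells also contain fluconazole at 8 µg/ml as a sub-toxic cotreatment; 0% = median of DMSO wells and 100% = median of geldanamycin control wells; wells of about 8 µL received 7.5 nL stock; the first replicate is given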
# Vif TR-FRET: inhibitors of Vif binding to APOBEC3G peptide, primary screen, biochemical, TR-FRET, GST-Vif 1-94, biotin-A3G peptide, dose response retest (AID 1117319); 260,000 tested, 0.57% active; inhibition, %, or IC50 in µM where a hit was titrated; TR-FRET GST-Vif / biotin-A3G peptide binding; higher % means a stronger effect; test concentration not given here; strong numbers were not always called active;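 active means above the screen mean plus three standard deviations and confirmed in dose response; inconclusive means results disagree or hit not tested in dose response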;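 further: Vif residues 1-94 fused to GST binding biotinylated APOBEC3G peptide 110-148; 0% = full assay without inhibitor and 100% = GST in place of GST-Vif; retest series ran down from 100 µM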
# HNF4A DNA FP: change in binding of human HNF4A to DNA, primary screen, biochemical, fluorescence polarization, FITC-DNA | 1 h | Hepatocyte nuclear factor 4-alpha (Homo sapiens), P41235 | 360,000 tested, 0.3% active | activity change, % at 10 µM; in the data active means activity change above about 30%, passing the limit was not always enough;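 further: controls were the assay level and a saturating level of protein; the project sought stronger binding though the title names inhibitors; some compounds called inactive have numbers as strong as hits; positive values seem to mean higher polarization but the record does not say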
# Target sequence (P41235 whole entry, looked up): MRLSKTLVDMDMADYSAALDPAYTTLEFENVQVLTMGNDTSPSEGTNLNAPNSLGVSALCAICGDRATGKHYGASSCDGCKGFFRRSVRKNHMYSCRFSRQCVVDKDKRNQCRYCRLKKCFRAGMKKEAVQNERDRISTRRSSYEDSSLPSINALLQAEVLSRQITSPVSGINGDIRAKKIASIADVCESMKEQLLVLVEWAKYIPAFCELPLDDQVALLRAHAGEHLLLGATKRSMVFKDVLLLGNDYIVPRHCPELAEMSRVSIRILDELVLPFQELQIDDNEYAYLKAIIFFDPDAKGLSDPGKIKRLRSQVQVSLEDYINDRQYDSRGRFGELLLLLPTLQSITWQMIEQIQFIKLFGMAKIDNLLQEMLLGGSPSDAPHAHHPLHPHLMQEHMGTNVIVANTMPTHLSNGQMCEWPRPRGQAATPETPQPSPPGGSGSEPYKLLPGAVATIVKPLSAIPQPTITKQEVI
# RanGTP-Impb inh: inhibitors of RanGTP-importin-beta interaction, primary screen, biochemical, FRET, CFP-Ran, YFP-importin-beta, homogeneous | 300,000 tested, 1.1% active | inhibition, % (no concentration beside the values) | AID 2216, 2009 | cell-free CFP-Ran/YFP-importin-beta FRET ratio;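 active means most replicates above 15%; inconclusive means exactly half above 15%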;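 further: 0% = DMSO wells and 100% = Ran loaded with GDP instead of GTP; wells of about 40 µL received 100 nL stock; the first replicate is given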
# LANA-H2A inh: blockers of LANA interaction with H2A/H2B – biochemical, FP readout, HTS, primary screen. Protein LANA1 (Human herpesvirus 8 type P (isolate GK18)), Q9QR71. cell-free LANA-H2A/H2B peptide, fluorescence polarization. inhibition, % (no concentration beside the values). 320,000 tested, 0.6% active. AID 2629, 2010; in the data active means inhibition mostly above about 10%, no sharp cut-off; inactive means mostly below about 6.7%;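 further: stock transfer was 7.5 nL into about 10 µL; 0% = median of vehicle wells and 100% = median of positive control wells; one replicate is shown; the record names a cut of 25% in any replicate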
# B2AR ag: beta2AR agonists driving receptor internalization, primary screen, cell-based, FAP fluorogen, flow cytometry | Beta-2 adrenergic receptor (Homo sapiens), P07550 | Am2.2-beta2AR cells; reference of the scale not given here | response, % (test concentration not listed) | 340,000 tested, 0.43% active;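 active means response above a set limit, near 3 SD of response in nonfluorescent compounds, cut at about 42% in these data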;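 further: stock transfer was 100 nL into about 11 µL; a reference agonist was the positive control; negative values mostly stem from fluorescent compounds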
# Target sequence (P07550 whole entry, looked up): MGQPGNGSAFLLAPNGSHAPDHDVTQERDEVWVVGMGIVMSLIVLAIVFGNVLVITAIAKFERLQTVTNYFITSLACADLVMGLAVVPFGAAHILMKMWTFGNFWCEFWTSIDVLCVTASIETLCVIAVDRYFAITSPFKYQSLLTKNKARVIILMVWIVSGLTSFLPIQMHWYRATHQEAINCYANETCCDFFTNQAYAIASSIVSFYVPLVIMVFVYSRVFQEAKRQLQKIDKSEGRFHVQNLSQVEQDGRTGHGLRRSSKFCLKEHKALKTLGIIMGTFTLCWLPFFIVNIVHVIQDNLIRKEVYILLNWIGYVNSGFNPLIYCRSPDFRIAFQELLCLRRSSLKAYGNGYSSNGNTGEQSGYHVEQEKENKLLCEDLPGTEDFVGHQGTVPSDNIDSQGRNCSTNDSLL
# ALR H2O2 inh: inhibitors of human ALR sulfhydryl oxidase, primary screen, biochemical, H2O2 detection, HRP-luminol luminescence, single point. FAD-linked sulfhydryl oxidase ALR (Homo sapiens), P55789. purified ALR, DTT oxidation. inhibition, % (concentration not given with the values). 290,000 tested, 3.8% active;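 active means mean and each replicate at 75% or more; inconclusive means only one of the two met; inactive means neither met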;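 further: stock transfer was 7.5 nL into about 7.5 µL; 0% = neutral wells and 100% = wells with inactivated enzyme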
# Target sequence (P55789 whole entry, looked up): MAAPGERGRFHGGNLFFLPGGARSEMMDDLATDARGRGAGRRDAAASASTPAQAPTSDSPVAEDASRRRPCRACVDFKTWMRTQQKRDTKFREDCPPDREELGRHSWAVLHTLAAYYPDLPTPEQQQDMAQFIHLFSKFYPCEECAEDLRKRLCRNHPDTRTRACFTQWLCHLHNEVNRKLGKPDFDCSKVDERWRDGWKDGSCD
# Starred values were filed as active, the others as inactive; ? = inconclusive; / = not tested or not shown; & = joins results of further samples.
SMILES,Calb FLC,Vif TR-FRET,HNF4A DNA FP,RanGTP-Impb inh,LANA-H2A inh,B2AR ag,ALR H2O2 inh
COC(=O)C(C(=O)OC)C(c1ccccc1)C(C(=O)c1ccccc1)[N+](=O)[O-] (configuration not stated),-1,1%,1.0,-1.8,0.4,6,2
COc1cc(Cl)c(C)cc1NC(=O)COC(=O)c1ccc(CN2CCCC2=O)cc1,/,-6%,2.9,/,3.5,6,1
O=C(COC(=O)CCC(=O)c1ccc(F)cc1)NCc1ccccc1Cl,/,-3%,1.3,/,2.2,-4,/
O=C(O)c1ccccc1N(c1ccccc1)c1ccccc1,28,/,4.9,3.7,3.0,1,30
CCCN(C(=O)/C=C/c1ccc(S(=O)(=O)N(CC)CC)cc1)C1CCS(=O)(=O)C1 (configuration not stated),/,/,3.6,/,3.2,1,/
CCOC(=O)CSCC(=O)Nc1ccc(S(=O)(=O)N2CCCCC2)cc1,-12,-2%,-1.3,2.4,-2.4,6,56
Cc1ccccc1C(=O)Nc1ccc(N2CCCC2)cc1,8,/,6.9,?,-2.0,0,92*
O=C(Nc1ccc(Oc2ccccc2)cc1)c1ccc(Cn2c(=O)[nH]c3ccsc3c2=O)cc1,-4,-6%,7.3,3.1,-1.4,10,-18
CC(C)CNS(=O)(=O)c1ccc(CCC(=O)NCc2cccnc2)cc1,11,-4%,0.0,2.4,2.6,-3,/
CCOc1ccc(CN2CCNC(=O)C2CC(=O)NC2CCCCCC2)cc1 (configuration not stated),0,/,3.5,-2.0,-0.4,0,-2
COCCOC(=O)C1=C(C)N=C2SCCC(=O)N2C1c1ccc(C(=O)OC)cc1 (configuration not stated),5,2%,1.6,-3.1,4.2,-6,-2
CC(/C=N/NC(=O)c1cccs1)=C\c1ccccc1,2,-3%,-0.3,8.5,-2.6,-7,-4
O=C(CN(Cc1ccccc1)C(=O)CSc1nnc(COc2ccccc2)o1)NC1CCCC1,-2,-3%,-6.2,-2.9,-5.4,-3,-6
CCOC(=O)CC1C(=O)NCCN1S(=O)(=O)c1ccc(OC)cc1 (configuration not stated),5,/,3.0,8.7,-1.6,1,-3
O=C(CSc1nc(C2CC2)nc2ccccc12)Nc1ccccc1N1CCOCC1,-10,6%,-3.5,?,0.8,-9,-2
CC(=O)N(Cc1cc(=O)[nH]c2ccccc12)c1ccc(C)cc1C,3,-1%,1.6,1.8,1.9,3,-2
CC(C)(C)C(=O)COC(=O)c1ccc2c(c1)C(=O)N(Cc1ccco1)C2=O,-9,6%,-0.3,-2.9,-1.0,2,4
O=C(Nc1nnc(-c2ccco2)o1)c1cccc2ccccc12,0,/,1.5,2.2,0.9,9,14
CCN(C[C@H]1N[C@@](Cc2ccccc2)(C(=O)OC)[C@H]2C(=O)N(C)C(=O)[C@@H]12)S(=O)(=O)c1ccc(C(F)(F)F)cc1,/,0%,0.8,/,-1.5,-2,/
CCOC(=O)c1c(C)[nH]c(C(=O)NCc2ccccn2)c1C,4,7%,0.4,0.9,-0.4,-3,-2
CSC1=C(C#N)C(CC(C)C)C(C(C)=O)=C(C)N1 (configuration not stated),-5,-2%,-3.1,3.5,2.5,-3,20
O=C(CN1CCN(c2ccccc2F)CC1)c1c[nH]c2ccc(F)cc12,1,0%,4.3,-4.2,-3.1,-11,28
CCOc1cccc(C(=O)Nc2ccc3[nH]ncc3c2)c1,-3,-7%,1.8,3.3,-1.5,-5,-14
CCn1c(CNc2ccc(OC)cc2)nnc1SCC(=O)N1CCCc2ccccc21,-8,1%,-2.6,-1.2,1.3,-11,-38
COc1ccc(C(=O)NCc2nnc(SC)n2C2CCCCC2)cc1,-4,26%,2.0,-1.9,-0.6,3,-2

# (further entries)
SMILES,Calb FLC,Vif TR-FRET,HNF4A DNA FP,RanGTP-Impb inh,LANA-H2A inh,B2AR ag,ALR H2O2 inh
CC(C)OC(=O)[C@H]1[C@H](c2ccc(Cl)cc2)[C@@](C#N)(C(N)=O)[C@@H]2C=CC(C(N)=O)=CN21,/,3%,-0.7,-7.3,/,-8,/
O=C(/C=C/c1ccccc1)CC(O)(c1ccccc1)C(F)(F)C(F)F (configuration not stated),16,2%,-1.2,3.6,-2.5,33,5
O=C1c2ccccc2C(=O)N1c1ncccn1,-11,21%,-3.9,-1.7,5.3,1,-1
O=C(CN(Cc1ccccc1)C(=O)CCC(=O)Nc1nccs1)NCc1ccco1,1,-1%,0.4,-1.6,-3.3,-1,2
Fc1cccc(Cc2noc(CN3CCCCC3c3ccccn3)n2)c1 (configuration not stated),0,-11%,5.4,1.7,-1.5,4,0
O=C(NCc1ccccc1)C1=C[C@H](C2CC2)C[C@H](OCCCCO)O1,3,-1%,-0.5,-0.3,0.2,-14,-9
O=C(Cn1[nH]c(=O)c2ccccc2c1=O)Nc1cccnc1,2,-8%,-1.6,-2.0,1.4,-4,22
Nc1nc(-c2ccc3c(c2)OCCO3)c(CC(=O)O)s1,-3,/,3.4,2.1,0.1,1,10
Cc1ccccc1Cn1c(=O)n(-c2ccccc2)c(=O)c2ccc(C(=O)NCc3ccco3)cc21,-3,4%,2.6,0.8,-3.6,-3,7
O=C(Cc1cccs1)NCc1ccc(Cl)cc1,1,/,0.1,-0.3,-1.1,3,1
COC(=O)Cn1c(CN2CCc3ccccc3C2)nc2c1c(=O)n(C)c(=O)n2C,-5,-2%,-0.2,3.3,-2.4,19,-10
Fc1cccc(Cc2noc(CN3CCC(c4ccncc4)CC3)n2)c1,-22,-6%,-2.1,5.0,-4.5,-2,-10
CCOC(=O)c1ccc(NC(=S)N(CCCN2CCCCCC2)Cc2ccco2)cc1,-4,-9%,-1.4,3.6,1.2,-5,-14
Cc1cccc(COc2ccccc2C(=O)N(C)CC(=O)Nc2cccc(F)c2)c1,/,/,1.9,/,-2.4,8,-2
CC(=O)OC(C(=O)Nc1nccs1)c1ccccc1 (configuration not stated),-3,2%,-1.1,-2.4,-5.4,-3,-14
CC1(C)CC(NC(=O)Cc2ccccc2)CC(C)(C)N1,23,/,5.3,2.1,6.9,-2,-2
Cc1nn(-c2ccccc2)c(C)c1-c1ccccc1O,-1,/,0.9,-1.6,0.5,4,16
COc1ccc(C(CC(=O)O)NC(=O)C(c2ccccc2)c2ccccc2)cc1 (configuration not stated),-1,4%,3.4,-3.1,0.3,-4,1
CC(=O)c1ccc(NC(=O)CN2CCC(C(=O)c3ccc(F)cc3)CC2)cc1,-1,/,1.4,2.1,1.8,0,-1
CNC(=O)c1nn(-c2ccc(Cl)cc2)ccc1=O,6,-2%,-2.9,-4.9,0.6,-9,0
C/C(N)=C(/C#N)C(=O)COC(=O)CNC(=O)c1ccc(Cl)cc1Cl,-3,?,-0.1,37*,0.0,-2,0
O=C(Nn1cnnc1)C(c1ccccc1)c1ccccc1,-2,-2%,0.3,2.8,-0.1,4,/
COc1cc(NC(=O)c2ccc(N)nc2)cc(C(=O)Nc2cccc(C(F)(F)F)c2)c1,4,0%,-3.1&7.1,-0.2,0.1,43*,9
COc1ccc(-c2noc(N3CCC(C(=O)Nc4ccccc4OC)CC3)n2)cc1,-5,/,-0.8,0.2,6.3,12,-19
Fc1ccccc1CSc1nnc(-c2ccccc2)o1,-13,9%,6.8,0.4,2.4,-1,-10

# Next section, overlapping the part above by 3 compounds.
SMILES,Calb FLC,Vif TR-FRET,HNF4A DNA FP,RanGTP-Impb inh,LANA-H2A inh,B2AR ag,ALR H2O2 inh
COc1cc(NC(=O)c2ccc(N)nc2)cc(C(=O)Nc2cccc(C(F)(F)F)c2)c1,4,0%,-3.1&7.1,-0.2,0.1,43*,9
COc1ccc(-c2noc(N3CCC(C(=O)Nc4ccccc4OC)CC3)n2)cc1,-5,/,-0.8,0.2,6.3,12,-19
Fc1ccccc1CSc1nnc(-c2ccccc2)o1,-13,9%,6.8,0.4,2.4,-1,-10
C=C(C)[C@H]1CC=C(C)C(=O)C1,/,/,1.8,/,-31,-3,-16
COc1ccc(C(=O)OC(C)C(=O)Nc2cc(C(F)(F)F)ccc2Cl)c(OC)c1OC (configuration not stated),-9,/,-2.9,1.1,-0.4,-2,-2
Cc1ccc(C)c(N2CCN(C(c3ccncc3)c3nnnn3Cc3ccccc3)CC2)c1 (configuration not stated),-1,12%,1.5,0.1,-3.1,0,-10
COc1ccc(N(C)S(=O)(=O)c2cccc(C(=O)Nc3cccc(C(=O)NC4CC4)c3)c2)cc1,/,/,-2.2,/,6.6,15,94*
COc1cccc(/C=C/C(=O)OCC(=O)c2c[nH]c3ccccc23)c1OC,9,-64%,1.3,4.8,-2.2,-5,-7
CCCCC(=NCCc1c(C)[nH]c2ccccc12)C1=C(O)CC(c2ccccc2)CC1=O (configuration not stated),-3,4%,1.7,1.0,-6.7,1,-16
CC1(C)CC(=O)C(CC2=C(N)CC(C)(C)CC2=O)=C(N)C1,/,?,-0.9,6.9,-3.8,-8,-6
O=C(CCCSc1nc2ccccc2[nH]1)NC1CCCCC1,-28,14%,2.4,0.5,0.0,8,1
CCOC(=O)c1c(CC(C)C)csc1NC(C)=O,1,-9%,-0.8,6.8,6.0,1,0
O=c1[nH][nH]c(-c2ccccc2)c1C=Nc1ccc(C(F)(F)F)cc1,-23,/,-0.7,0.9,-6.7,-4,-19
NC(=O)c1cc([N+](=O)[O-])ccc1NCCN1C(=O)c2ccc(C(=O)O)cc2C1=O,2,5%,-0.2,-3.7,-4.7,3,-4
COc1ccc(Cl)cc1S(=O)(=O)N1CCCC(C(=O)N2CCCC2)C1 (configuration not stated),-2,/,0.7,1.9,-1.8,-5,-17
N#C/C(=C\c1cn(CCOc2ccccc2)c2ccccc12)C(=O)NCc1cccs1,-7,/,-2.4,6.4,6.2,-7,/
Cc1ccccc1N1CC(C(=O)Nc2ccc3c(c2)OCO3)CC1=O (configuration not stated),2,/,3.6,2.8,-4.9,5,-35
COc1cccc(NC(=O)NC2CC(=O)N(c3ccc4c(c3)OCCO4)C2)c1 (configuration not stated),5,2%,5.2,3.7,4.8,-8,-14
CC1=CC(C#N)(C#N)C(C#N)(C#N)C(c2ccccc2)N1 (configuration not stated),7,?,/,5.1,14,/,-33
CCCC(=O)NC(C)c1nc2ccccc2n1C (configuration not stated),-9,14%,-0.4,-1.8,-1.7,-6,-17
NC(=O)C1(N2CCCCC2)CCN(Cc2ccc(F)cc2)CC1,-5,-1%,-2.2,-0.8,-3.9,1,-23
Cc1ccc(F)cc1NC(=O)c1c(-c2ccccc2)noc1C,-3,1%,1.2,-1.5,1.3,-13,-34
Cc1cc(C)cc(OCC(=O)N2N=C(C(F)(F)F)CC2(O)C(C)(C)C)c1 (configuration not stated),-8,20%,0.3,2.9,0.1,-2,-7
OC(COc1ccc(CNCc2cccnc2)cc1)CN1CCc2ccccc2C1 (configuration not stated),0,2%,-3.1,1.6,-0.4,4,-11
CCn1c(=N)c(C(=O)NC)cc2c(=O)n3cccc(C)c3nc21,/,-11%,-1.7,/,17*,-17,/
CCOC(=O)Cc1csc(NC(=S)NC(=O)c2ccc([N+](=O)[O-])cc2)n1,-11,14%,3.5,1.3,5.2,8,2
C#CCn1c(=NC(=O)c2ccc(Cl)s2)sc2cccc(OC)c21,-5,-54%,4.8,6.8,0.3,12,13
Cc1cc(NS(=O)(=O)c2ccc(NC(=O)C(C)Oc3cc(C)c(Cl)c(C)c3)cc2)no1 (configuration not stated),18,/,1.9,-0.7,-1.6,3,35

# Bioassay records as filed in PubChem.
